PrP UTR inh: inhibition of PrP 5' UTR reporter expression; AID 488862; cell-based PrP 5' UTR mRNA reporter, plate reader; 340,000 tested, 0.35% active; inhibition, % (concentration not given with the values);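 active = every replicate at 50% or more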;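 note: 0 = median of the neutral control wells; tested in H4 reporter cells; numbers are from one replicate; inactives centre near -14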
Autofluor counter: flagged as autofluorescent in microsphere protease counterscreen | 360,000 tested, 3.1% active | compound autofluorescence counterscreen, microsphere flow cytometry; stronger effect = higher value | fluorescence intensity (concentration not given with the values) | AID 624483;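 active = at least 3 SD above the mean of all compounds, about 16000 in these data; inconclusive = too few beads counted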;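 note: 100 nL of 1 mM stock went into each well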
Sa RN4220 lethal: kills Staphylococcus aureus RN4220. inhibition, % (concentration not given with the values). S. aureus RN4220 growth, OD600, 16 h. 330,000 tested, 0.33% active;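 active = z-score of -3 or lower and OD600 up to 0.18 on both plates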;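 note: plate controls were untreated cells for no effect and reference antibiotic for full effect; stock transfer was 100 nL into about 80 µL; one replicate is shown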
Sa ugtP lethal: compounds lethal to S. aureus RN4220 ugtP deletion mutant; growth inhibition, % (test concentration not listed); OD600 growth, 16 h; some inactives read as strong as hits; AID 1259309; 330,000 tested, 0.54% active;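 active = z-score under -3 and OD600 up to 0.15 on both plates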;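 note: plate controls were untreated wells for no effect and antibiotic for full effect; wells of about 80 µL received 100 nL stock; the first replicate is given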
Mtb hypoxia rep: inhibitors of hypoxia-regulated fluorescent reporter in Mycobacterium tuberculosis; AID 1159583; fluorescence inhibition, % (no concentration beside the values); M. tuberculosis hypoxia-regulated fluorescent reporter, fluorescence; 300,000 tested, 0.1% active;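 active = 35 to 45% if threefold the growth effect, above 45% if 1.5-fold the growth effect; inactive = the rest, general growth blockers included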;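 note: wells of about 50 µL received 100 nL stock; 0% = vehicle wells and 100% = reference inhibitor wells; whole bacteria with a GFP reporter of the hypoxia response; strong numbers were not always called active; many hits fall short of the cut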
BJeLR viability: BJeLR cell viability loss. inhibition, % (concentration not given with the values). BJeLR (HRASV12) viability, CellTiter-Glo ATP luminescence, 48 h; reference of the scale not given here. 300,000 tested, 0.17% active;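 active = replicate mean above 50%; inconclusive = above 50% but judged a plate artefact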;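 note: 50 nL library stock added to about 25 µL; numbers are from one replicate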
Mtb hypoxia rep growth: recorded beside Mtb hypoxia rep, whose call it bears; growth inhibition, %; measured here: M. tuberculosis growth (absorbance);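 0% = vehicle and 100% = reference antibiotic; read after six days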
* hit, by the source's call; ? = inconclusive; . = no result given; & = joins results of further samples.

SMILES	PrP UTR inh	Autofluor counter	Sa RN4220 lethal	Sa ugtP lethal	Mtb hypoxia rep	Mtb hypoxia rep growth	BJeLR viability
CCCCn1c(N)c(N(CCOC)C(=O)C2CCN(c3ncnc4sc(C)c(C)c34)CC2)c(=O)[nH]c1=O	-17	.	1.2	1	-3	-2	-14
CCOC(=O)C1=C(C)OC(N)=C(C#N)C1c1cc2cc(C)ccc2nc1N1CCCCC1 (stereo not given)	-19	9381	6.8	-6	9	14	-10
O=C(CSc1nnnn1-c1ccc(O)cc1)N1N=C(c2ccc3ccccc3c2)CC1c1ccccc1 (stereo not given)	.	.	-0.8	-50	4	1	-3
CCOC(=O)CCCCCC(=O)Nc1ccc2c(c1)CC(=O)N([C@H](C)CO)C[C@@H](C)[C@H](CN(C)Cc1ccc3c(c1)OCO3)O2	-30	3823	3.8	1	-2	1	.
COc1cccc(NC(=S)NN2C(C)CCCC2C)c1 (stereo not given)	-18	2267	6.4	6	-12	6	3
O=C(COc1ccc(-c2ccccc2)cc1)N/N=C/c1cc(O)ccc1Br	-39	2076	.	.	.	.	20
C/C(=N\NC(=O)c1cccnc1)c1ccc(OC2OCCOC2Oc2ccc(/C(C)=N/NC(=O)c3cccnc3)cc2)cc1 (stereo not given)	-5	3513	.	.	.	.	5
Cc1cccc(OCCNC(=O)c2ccc(Cl)c(S(=O)(=O)NCc3cccnc3)c2)c1	-13	3933	1.8	4	5	8	.
CCN(CC)CCNC(=O)c1ccc(NC(=O)c2ccccc2-c2ccc(C(F)(F)F)cc2)cc1	8	3107	1.8	2	-8	-1	6
CN=C1SC(CC(=O)Nc2ccccc2F)C(=O)N1N=Cc1ccc(O)c(OC)c1 (stereo not given)	.	.	1.4	11	2	4	.
CC(C)c1ccc(NC2CCCN(C(=O)c3ccncc3)C2)cc1 (stereo not given)	-10	4523	5.0	-2	10	0	8
Cc1ccc(S(=O)(=O)N2CCCCC2)cc1C(=O)N1CCN(CCO)CC1	10	.	2.5	0	-3	-5	.
CCOC(=O)c1ccc(NNC(=O)CC)c([N+](=O)[O-])c1	-29	3131	6.4	7	5	-3	-3
CCn1cc(C(=O)NCCCOC)c(=O)c2cc(S(=O)(=O)N3CCCC3)ccc21	-2	5796	-1.2	-4	-2	8	-8
CC(=O)Nc1cccc(NC(=O)CSc2nnc(Cc3cccn3C)n2-c2ccc(C)cc2)c1	-13	10632	6.3	-2	-1	6	-2
ONC(=Nc1ccccc1)C(=Nc1ccccc1)NO	-16	3061	5.8	-10	7	10	-8
N#Cc1ccccc1NC(=O)c1cc(=O)c2ccccc2o1	-62	3834	0.7	6	-2	5	4
O=C(OCCC1Oc2cccnc2NC1=O)c1ccc(F)cc1 (stereo not given)	-14	3163	6.6	2	-3	8	4
CC(C)OC(=O)CC(=O)CSc1nc2c(c(-c3cccs3)c1C#N)CCC2	-28	2297	1.6	-3	2	1	5
CCOC(=O)c1c(NC(=O)C(C)NCc2ccco2)sc2c1CCC(C)C2 (stereo not given)	-18	3853	1.9	2	14	15	-1
CC1CC=CC2C1C(=O)N(Cc1ccccc1)C2c1ccc(-c2ccc(N(C)C)cc2)cc1F (stereo not given)	.	.	1.4	0	2	14	.
COC(=O)c1sccc1NC(=S)N1CCN(c2cccc(C)c2C)CC1	-13	2570	-4.6	21	3	8	2
C[N+](C)(C)CCCNC(=O)c1ccc(/C=N/O)nc1	-20	2348	.	.	.	.	-3
CCOc1ccc(OCC)c(NC(=O)C2CCN(S(=O)(=O)c3cnc[nH]3)CC2)c1	-15	3100	-0.8	0	.	.	7
CCCn1c(=O)cc(N)n(-c2ccc(OC(F)(F)F)cc2)c1=O	-18	2831	2.0	16	0	-8	-2
O=C1C(Cc2ccccc2)NCC=CCC(c2ccc(Cl)cc2)N1Cc1ccc(Cl)cc1 (stereo not given)	.	.	22&12	2&-6	20&13	9&16	.
Cc1ccccc1C(=O)NCC(=O)NNC(=S)NC(=O)c1ccccc1C	-1	2449	12	11	18	13	5
CC(C)[C@H](NC(=O)c1cccc(S(=O)(=O)N2CCOCC2)c1)C(=O)Nc1nc2ccccc2s1	-53	11322	-2.6	-9	-9	-6	-7
c1ccc(CCc2ccccc2-c2nc(-c3cccnc3)no2)cc1	-4	2829	-13	16	7	11	-9
CCC(=O)N1CCc2cc(Br)cc(S(=O)(=O)N3CCCC(C(=O)NC(C)(C)C)C3)c21 (stereo not given)	-8	3905	0.5	1	-3	3	-2
Cc1cccc2sc(NC(=O)c3ccc(NS(=O)(=O)c4cccs4)cc3)nc12	-7	1999	14	-3	13	0	3
CS(=O)(=O)Nc1ccccc1C(=O)Nc1cc2c(cc1C(=O)O)OCCCO2	-18	3460	.	.	.	.	-18
O=[N+]([O-])c1nn(-c2ccccc2)n(O)c1=NC1CCN(Cc2ccccc2)CC1	-22	3149	29	12	.	.	-5
Cc1[nH]c2ccccc2c1/C=N/NC(=O)CNC(=O)c1ccc2c(c1)OCO2	-23	2351	.	.	.	.	-5
Cc1c(C(=O)N2CCC(C)CC2)sc2ncn(CC(=O)N3CCC(C)CC3)c(=O)c12	-14	5907	1.2	0	-10	5	-2
Cc1ccc(S(=O)(=O)NCCSc2nnnn2-c2cc(C)ccc2C)cc1	-5	.	0.1	-20	12	1	-10
CCOC(=O)C1=C(c2ccc(OC)cc2)C(=O)c2ccccc2C1=O	.	.	97*	98*	10	13	110*
CCCCN(c1nc2ccccc2nc1Cl)S(=O)(=O)c1ccc(C)cc1	-17	2995	2.7	33	0	-2	7
O=C(c1ccc2c3c(cccc13)CC2)C1CCCN(Cc2ccc(OCCO)cc2)C1 (stereo not given)	87*	2977	-4.4	1	-3	-6	-9
CN(C)CCNC(=S)Nc1ccccc1Cl	13	7658	3.9	4	8	2	11
COc1ccc(CCN(C)C2CCCN(C(=O)c3sccc3C)C2)cc1OC (stereo not given)	-9	4742	.	.	.	.	13
Cc1c(Cl)cccc1NC(=S)Nc1ccc(S(=O)(=O)Nc2ncccn2)cc1	-4	2941	1.6	7	14	9	.
O=C(Cn1cnc2scc(-c3ccc(F)cc3)c2c1=O)N1CCOCC1	-12	4899	6.5	-1	5	7	5
CCOC(=O)c1sc(NC(=O)c2ccncc2)nc1C	-49	2502	31	18	-1	-1	-1
Cc1c(C(=O)NCc2n[nH]c(=S)n2-c2ccc(F)cc2)cccc1[N+](=O)[O-]	2	4435	6.4	16	10	-3	6
CCN(CC)C(=O)c1ccc2c(c1)C1C=CCC1C(C(=O)O)N2 (stereo not given)	-6	3428	.	.	.	.	3
N#Cc1cccc(NC(=O)COC(=O)c2cc(S(=O)(=O)Nc3ccccc3Cl)ccc2O)c1	0	3717	3.3	0	-6	9	.
CCCCNS(=O)(=O)c1ccc(OC)c2ncccc12	-16	19492*	2.0	1	2	-3	3
CCCCNC(=O)/C(C#N)=c1\s/c(=C\c2ccccc2OC(F)F)c(=O)n1CCCOC	1	10752	.	.	.	.	8
CN1CCN(CC(=O)Nc2nc(-c3ccccc3)cs2)CC1	-26	3005	0.6	1	4	9	6
(listing goes on)
SMILES	PrP UTR inh	Autofluor counter	Sa RN4220 lethal	Sa ugtP lethal	Mtb hypoxia rep	Mtb hypoxia rep growth	BJeLR viability
O=C(Nc1cccc(F)c1)c1c(O)c2cccc3c2n(c1=O)CCC3	.	.	4.0	-1	9	2	6
OCCN1CCN(C(=S)NC2CCCC2)CC1	-13	2597	5.9	3	4	-1	-6
Cc1cccc2sc(NC(=O)Cn3cccc3)nc12	-34	6057	0.8	9	6	7	2
O=C(OCC(=O)N1CCN(c2ccccc2)CC1)C1=COCCO1	-7	9030	1.1	0	9	13	1
O=C(CCCN1C(=O)c2cccc3cccc(c23)C1=O)N1CCN(c2ccccn2)CC1	-6	2229	0.7	0	2	4	-9
Cn1cnc2cc(NCc3ccccc3Cl)ccc21	-20	3818	1.0	-2	5	3	-5
Cc1ccc2nc(-c3cccc(Br)c3)cc(C(=O)NC3=NCCS3)c2c1	-23	5233	-7.7	-13	18	8	.
O=C(NCc1ccc2c(c1)OCO2)c1cc(F)c(F)cc1Cl	-14	3597	2.6	4	23	28	-3
O=C(NN=Cc1ccccc1Cl)c1cccc(F)c1	.	.	8.5	-7	7	5	.
Cc1cc(C)cc(NC(=O)CN2C(=O)NC(C)(c3ccccc3)C2=O)c1 (stereo not given)	-29	2841	1.5	-4	.	.	-4

Whole records as entered above:
OCCN1CCN(C(=S)NC2CCCC2)CC1 in the list: PrP UTR inh: -13; Autofluor counter: 2597; Sa RN4220 lethal: 5.9; Sa ugtP lethal: 3; Mtb hypoxia rep: 4; Mtb hypoxia rep growth: -1; BJeLR viability: -6
O=C(Nc1cccc(F)c1)c1c(O)c2cccc3c2n(c1=O)CCC3 in the list: PrP UTR inh: .; Autofluor counter: .; Sa RN4220 lethal: 4.0; Sa ugtP lethal: -1; Mtb hypoxia rep: 9; Mtb hypoxia rep growth: 2; BJeLR viability: 6

Retrieved by compound from the list above (5):
SMILES	PrP UTR inh	Autofluor counter	Sa RN4220 lethal	Sa ugtP lethal	Mtb hypoxia rep	Mtb hypoxia rep growth	BJeLR viability
O=C(Nc1cccc(F)c1)c1c(O)c2cccc3c2n(c1=O)CCC3	.	.	4.0	-1	9	2	6
CS(=O)(=O)Nc1ccccc1C(=O)Nc1cc2c(cc1C(=O)O)OCCCO2	-18	3460	.	.	.	.	-18
c1ccc(CCc2ccccc2-c2nc(-c3cccnc3)no2)cc1	-4	2829	-13	16	7	11	-9
COC(=O)c1sccc1NC(=S)N1CCN(c2cccc(C)c2C)CC1	-13	2570	-4.6	21	3	8	2
Cc1[nH]c2ccccc2c1/C=N/NC(=O)CNC(=O)c1ccc2c(c1)OCO2	-23	2351	.	.	.	.	-5

Continuation.
SMILES	PrP UTR inh	Autofluor counter	Sa RN4220 lethal	Sa ugtP lethal	Mtb hypoxia rep	Mtb hypoxia rep growth	BJeLR viability
C/C(=N/NC(=O)c1ccco1)c1cccc(NC(=O)c2ccc(C)o2)c1	-9	4559	.	.	.	.	12
COc1ccccc1NC(=S)N1CCCC1	-6	1937	2.5	4	4	4	4
Cc1nc(C)c(C(=O)O)c(-c2ccsc2)c1C(=O)O	.	.	3.8	5	9	-4	-8
Cc1nn(Cc2ccc(Cl)cc2Cl)c(Cl)c1C(=O)O	1	3468	5.5	3	-7	-7	2
N#CC1(NC(=O)CSc2nc3ncc(Cl)cc3[nH]2)CCCCC1	-22	?	.	.	.	.	-5
O=C(NC1CCCCC1)C(c1ccncc1)N(Cc1ccc2c(c1)OCO2)C(=O)c1cnsn1 (stereo not given)	2	2557	-0.6	1	.	.	2
CSC1=NC2(C)CCCCC2C12C=CC(=O)C=C2 (stereo not given)	-34	4841	3.3	-4	6	0	-3
COc1ccccc1CCN=C(N)NS(=O)(=O)c1ccc(C)cc1	-26	2696	3.4	-5	3	2	7
CCN(CC(=O)NCc1ccc(Cl)cc1)C(=O)CSCC(=O)Nc1cccc(C)c1	4	6198	-2.8	-3	-2	11	2
C(=C\c1ccccn1)/c1cccnc1	-50	4121	.	.	.	.	20
COc1cccc(/C=C(\C#N)C(=O)NC2CCS(=O)(=O)C2)c1 (stereo not given)	-18	9784	0.8	9	5	2	-19
O=C(NCC(c1cccs1)N1CCOCC1)C1CCN(S(=O)(=O)c2cc(Cl)ccc2Cl)CC1 (stereo not given)	-14	3524	9.4	9	-2	1	.
COCCn1c(SCC(=O)Nc2ccc3[nH]c(=O)[nH]c3c2)nc2ccccc21	-5	3652	7.0	-1	11	4	.
CC1CCCN(C(=O)CCCNC(=O)c2ccc(Cl)cc2)C1 (stereo not given)	3	6491	0.3	2	2	7	3
CCCOc1ccc(C(=O)NNC(=O)CCNC(=O)c2ccco2)cc1OC	12	?	-0.6	-4	-4	-3	0
CCCOC(=O)CCCC[C@H]1SC[C@@H](NC(=O)OC)[C@H]1NC(=O)OC	-19	3193	-0.3	8	5	2	-2
CCOC(=O)c1cn(CC(=O)Nc2ccc(OC)cc2OC)nn1	-22	2008	1.5	5	-3	4	3
Oc1ccccc1N1CCN(c2ncccn2)CC1	-22	5378	4.8	-7	0	5	-6
COc1cc2c(C(=O)N3CCN(c4ccccc4)CC3)c(C)oc2cc1Br	-20	3310	2.3	-13	8	10	-5
COc1ccc(CN2C(=O)[C@@H]3C(c4ccccc4Cl)=NO[C@@H]3C2=O)cc1	0	3939	-2.6	-9	3	12	-2
O=C(Nc1cccc(-c2cnc3ccccc3n2)c1)c1ccc(Cl)cc1	-22	7585	6.4	-1	2	-1	-4
CCCCS(=O)(=O)N1CCN(C(=N)N[N+](=O)[O-])CC1	-7	4277	3.0	-6	1	6	-1
